BJeLR lethal: BJeLR cell viability loss. BJeLR (HRASV12) viability, CellTiter-Glo ATP luminescence, 48 h; reference of the scale not given here. inhibition, % (test concentration not listed). hit rate 0.17% among 300,000;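 active means replicate mean above 50%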;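 further: 50 nL library stock added to about 25 µL; numbers are from one replicate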
Mtb hypoxia rep: Mtb hypoxia fluorescent reporter inhibition | fluorescence inhibition, % (no concentration beside the values) | AID 1159583 | hit rate 0.1% among 300,000 | M. tuberculosis hypoxia-regulated fluorescent reporter, fluorescence;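 active means 35 to 45% if threefold the growth effect, above 45% if 1.5-fold the growth effect; inactive means the rest, general growth blockers included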;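 further: wells of about 50 µL received 100 nL stock; 0% = vehicle wells and 100% = reference inhibitor wells; whole bacteria with a GFP reporter of the hypoxia response; strong numbers were not always called active; many hits fall short of the cut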
Sa RN4220 lethal: S. aureus RN4220 growth inhibition; OD600, 16 h; inhibition, % (concentration not given with the values); hit rate 0.33% among 330,000;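 active means z-score of -3 or lower and OD600 up to 0.18 on both plates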;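 further: plate controls were untreated cells for no effect and reference antibiotic for full effect; stock transfer was 100 nL into about 80 µL; one replicate is shown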
Bead autofluor: compound fluorescence in toxin protease inhibitor counterscreen. compound autofluorescence counterscreen, microsphere flow cytometry; stronger effect = higher value. fluorescence intensity (test concentration not listed). hit rate 3.1% among 360,000. AID 624483;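 active means at least 3 SD above the mean of all compounds, about 16000 in these data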;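 further: 100 nL of 1 mM stock went into each well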
PrP 5UTR inh: suppresses PrP 5' UTR mRNA reporter expression; cell-based PrP 5' UTR mRNA reporter, plate reader; inhibition, % (test concentration not listed); hit rate 0.35% among 340,000;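 active means every replicate at 50% or more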;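 further: 0 = median of the neutral control wells; tested in H4 reporter cells; numbers are from one replicate; inactives centre near -14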
ugtP null kill: kills S. aureus RN4220 lacking UgtP. AID 1259309. hit rate 0.54% among 330,000. growth inhibition, % (no concentration beside the values). S. aureus RN4220 ugtP deletion, OD600 growth, 16 h; some inactives read as strong as hits;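 active means z-score under -3 and OD600 up to 0.15 on both plates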;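 further: plate controls were untreated wells for no effect and antibiotic for full effect; wells of about 80 µL received 100 nL stock; the first replicate is given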
Mtb hypoxia rep growth: second read-out of Mtb hypoxia rep, no call of its own (marks repeat the call); growth inhibition, %; measured here: M. tuberculosis growth (absorbance);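 0% = vehicle and 100% = reference antibiotic; read after six days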
The depositor's hits bear a star; / = no result given. Rows were taken by chance (roughly 3.9% active in at least one column).

SMILES	BJeLR lethal	Mtb hypoxia rep	Mtb hypoxia rep growth	Sa RN4220 lethal	Bead autofluor	PrP 5UTR inh	ugtP null kill
O=C(NCC(c1ccco1)N1CCOCC1)c1ccc(F)cc1 (configuration not stated)	-3.9	4.7	-0.5	0.3	6766	-13.0	3.4
CCn1cc(C(=O)N(C)c2ccccc2F)c2cc(OC)c(OC)cc2c1=O	-2.8	0.4	-10.6	2.6	3067	23.5	7.3
CCc1nnc(NC=C2C(=O)OC(C)(C)OC2=O)s1	2.8	7.1	1.3	4.8	9354	-35.3	8.5
O=C(Oc1cc(=O)oc2ccccc12)c1ccccc1	-4.9	/	/	-0.1	5607	-29.8	-4.4
CC(=O)/C(C(=N)N1CCN(c2cccc(Cl)c2)CC1)=C(\C)O	2.0	-5.3	-4.4	2.1	12631	-7.4	-0.5
CCCCCCN1CC(=O)N2[C@@H](Cc3c([nH]c4ccccc34)C2(C)C)C1=O	0.0	16.8	8.1	8.4	3778	-10.7	-6.5
CCCCN(CC)CCNC(=O)Cn1cc2c(n1)-c1c(oc(C(=O)N3CCCC3)c1C)CC2	7.8	14.0	1.4	2.9	5568	-11.0	10.1
C/C(=N/NC(=O)c1cc(Cl)ccc1O)C12CC3CC(CC(C3)C1)C2	-1.7	/	/	/	5123	-14.7	/
COc1ccc(OC2CCN(C(=O)Nc3ccc(C)cc3)CC2)cc1	-3.7	4.1	3.7	0.5	3212	-19.1	11.6
Clc1ccc(CSc2nnc(-c3cccnc3)o2)cc1	1.6	/	/	7.3	3395	4.8	9.2
COc1ccc(C(=O)NCC(=O)N2CCCC(C(F)(F)F)C2)cc1OC (configuration not stated)	1.4	-3.1	-3.9	6.1	6405	-29.0	2.2
COc1cc(C=O)ccc1OCC(=O)Nc1cccc(S(=O)(=O)N(C)c2ccccc2)c1	0.1	4.6	4.9	9.2	/	-18.8	2.5
CC(C)N1CCC(=NNC(=O)c2cccs2)CC1	-0.5	-0.8	-3.1	4.2	6474	-8.7	1.8
Cc1ccc(-c2nc3n(n2)Cc2ccccc2-3)cc1	19.8	-62.2	-17.4	6.2	4077	21.7	-2.0
CC(C)(C)NC(=O)CSc1nnc(-c2ccco2)n1Cc1ccco1	-0.2	2.5	-3.7	0.7	16522*	11.7	1.2
O=C(c1cc2ccccc2oc1=O)N1CCN(CCc2ccccc2)CC1	3.3	5.1	10.8	-1.2	15552	-6.8	0.5
Cn1cnc([N+](=O)[O-])c1Sc1nc(N)nc2c1ncn2Cc1ccccc1	/	10.2	5.7	5.6	4405	-11.6	8.3
S=c1[nH]nc(-c2ccncc2)n1N=Cc1cn(-c2ccccc2)nc1-c1ccccc1	/	-10.8	-3.1	12.1	/	/	-7.0
CC(C)(C)NC(=O)NCc1cccnc1	-4.6	-1.2	-4.5	2.7	4298	-24.8	5.3
O=C(O)c1cccc(S(=O)(=O)N2CCN(Cc3ccc4c(c3)OCO4)CC2)c1	6.5	-4.0	-15.3	0.9	6373	-5.9	10.3

Another view of 4 compounds above.
| SMILES | BJeLR lethal | Mtb hypoxia rep | Mtb hypoxia rep growth | Sa RN4220 lethal | Bead autofluor | PrP 5UTR inh | ugtP null kill |
| --- | --- | --- | --- | --- | --- | --- | --- |
| CC(C)(C)NC(=O)NCc1cccnc1 | -4.6 | -1.2 | -4.5 | 2.7 | 4298 | -24.8 | 5.3 |
| S=c1[nH]nc(-c2ccncc2)n1N=Cc1cn(-c2ccccc2)nc1-c1ccccc1 | / | -10.8 | -3.1 | 12.1 | / | / | -7.0 |
| CC(C)N1CCC(=NNC(=O)c2cccs2)CC1 | -0.5 | -0.8 | -3.1 | 4.2 | 6474 | -8.7 | 1.8 |
| O=C(Oc1cc(=O)oc2ccccc12)c1ccccc1 | -4.9 | / | / | -0.1 | 5607 | -29.8 | -4.4 |

Following part.
SMILES	BJeLR lethal	Mtb hypoxia rep	Mtb hypoxia rep growth	Sa RN4220 lethal	Bead autofluor	PrP 5UTR inh	ugtP null kill
CCOC(=O)C1CCN(S(=O)(=O)c2cc(C(=O)N3CCCCC3)ccc2OC)CC1	-2.4	0.1	9.2	3.9	5878	-12.3	4.3
CC1(C)CC(NC(=O)c2coc(=O)c(Br)c2)CC(C)(C)N1	7.0	9.4	10.5	5.8	3414	-63.6	5.7
CCOC(=O)N1CCC(NC(=O)CCC(=O)N2CCOc3ccccc32)CC1	-11.7	7.0	13.7	5.3	2659	-13.5	7.3
Cc1ccccc1C(=O)NNC(=O)C1CC(=O)N(c2ccc3c(c2)OCCO3)C1 (configuration not stated)	/	5.0	2.9	6.1	3446	-21.5	7.7
CN1C(=O)C(C)(C)c2cc(S(=O)(=O)N3CCN(c4ccc(F)cc4)CC3)ccc21	5.5	13.6	5.7	2.4	6345	-14.2	10.2
Cc1ccc(C)c(N2CCN(C(=O)C3CCCN(S(=O)(=O)c4cnc[nH]4)C3)CC2)c1 (configuration not stated)	-3.6	/	/	0.4	5611	-11.6	4.3
CN(C)c1ccc(/C=C/c2nc3ccccc3c(=O)[nH]2)cc1	18.5	-11.1	-0.3	-4.7	3594	60.5*	-12.2
COc1ccc(-c2nsc3c(N4CCN(C(=O)c5ccco5)CC4)ncnc23)cc1	4.4	2.9	8.9	2.5	3643	-49.8	-3.9
O=C(Cn1nnc2ccccc21)N/N=C/c1ccco1	5.5	/	/	/	2376	-2.1	/
COc1cnn(-c2ccc([N+](=O)[O-])cc2)c(=O)c1Cl	8.2	-3.3	1.2	3.1	3967	-15.0	7.6
O=S1(=O)NC(=NCc2ccco2)c2ccccc21	0.6	5.6	-6.3	3.6	10982	-29.0	7.7
Cc1ccc(OC(C)C(=O)N2CC(=O)Nc3ccccc32)cc1 (configuration not stated)	8.1	-0.8	5.6	0.9	3862	-0.5	-4.0
CCN(CC)C(=O)CSc1nnc(CNc2ccc(F)cc2)o1	7.5	14.7	8.6	3.2	3681	-15.4	-12.4
COc1cc(/C=C(/C#N)c2ccc(C)cc2)ccc1Oc1ccc([N+](=O)[O-])cn1	10.0	18.4	8.3	-9.8	7006	-30.1	-0.2
C/C(=N\O)C(C)(C)Nc1cccc(Br)c1	3.1	/	/	/	5568	4.3	/
COc1ccc(S(=O)(=O)Cc2ccc(C(=O)N3CCN(c4ccccc4F)CC3)o2)cc1	15.1	/	/	4.8	5421	-8.6	8.1
O=C(Nc1ccc(-c2nc3ccccc3c(=O)o2)cc1)c1ccco1	4.7	14.2	3.3	-6.4	7177	-19.4	4.6
CCOC(=O)N1CCN(C(=O)c2cccc(N3C(=O)NC4CC3(C)Oc3ccc(Cl)cc34)c2)CC1 (configuration not stated)	-16.2	-3.1	-5.5	1.8	4680	4.7	3.2
CCc1nn(CCCC(=O)N2CCN(c3ccc(OC)cc3)CC2)c(=O)c2cc3occc3n12	-6.5	4.1	3.4	-3.8	6072	-16.0	13.5
CC(C)(C)c1ccc(Oc2ncccc2NC(=O)c2cccs2)cc1	2.2	2.7	-0.3	1.9	/	-17.2	14.1
COc1cc(C2NC(=O)N(C)C3=C2C(=O)CCC3)cc(OC)c1OC (configuration not stated)	-2.3	2.4	5.1	1.7	12512	-16.6	-0.4
COc1ccccc1NC(=O)c1cc[n+](C)cc1	-11.4	7.1	6.5	-0.5	3024	-16.7	7.0
O=C(CN(C(=O)c1csnn1)c1cccc(C(F)(F)F)c1)NCc1ccc(F)cc1	2.1	14.9	16.6	1.3	3766	-18.6	3.0
COc1cc(OC)cc(C(=O)N[C@H](C(=O)Nc2nc3ccccc3[nH]2)C(C)C)c1	50.8*	3.1	1.8	1.3	1926	67.8*	8.5
COc1ccc(-n2nc(C(=O)NCc3cc(OC)ccc3OC)c3c4ccccc4n(C)c3c2=O)cc1	-5.0	-2.9	4.6	3.7	2541	-2.4	13.8
CCCC(=O)Nc1nnc(SCC(=O)N2CCN(c3ccccc3)CC2)s1	-1.9	10.0	6.4	1.2	3689	12.3	1.5
Nc1nnc(SCC(=O)N2CCN(c3ccccc3)CC2)n1-c1ccccc1	-0.9	12.1	11.5	6.7	3211	4.2	15.9
CC(=NNC(=O)c1nnn(-c2nonc2N)c1CN(C)c1ccccc1)c1ccc(O)cc1	/	3.7	5.2	1.8	/	/	0.0
CCOCCCN(C(=O)c1snc(C(N)=O)c1N)C(C(=O)NC1CCCC1)c1ccc(OC)cc1 (configuration not stated)	-3.5	-9.6	4.6	0.3	3984	-12.1	-2.0
CCc1ccccc1NC(=O)N1CCc2ccccc2C1	7.1	14.4	5.4	1.5	5461	-17.4	7.2
O=C(Nc1ccccc1F)C1CCN(C(=O)Cc2ccccc2)CC1	5.1	16.1	10.5	5.8	2547	-22.5	8.4
N#Cc1ccc(C23CC4(C2)[C@H](CN(CC2CCCCC2)[C@@H]4c2ccccc2)C3c2ccccc2)cc1 (some centres not stated)	-0.6	/	/	/	4730	-37.0	/
Cc1nn2c(c1-c1ccc(Cl)cc1)N=C(c1ccco1)CC2c1ccccc1 (configuration not stated)	-6.1	6.6	1.4	-10.6	22364*	-39.6	57.6
O=C(NCc1cccnc1)C(=O)NCC(c1ccco1)N1CCN(c2ccc(F)cc2)CC1 (configuration not stated)	-8.8	10.5	2.6	5.0	7013	-42.7	3.5
CC(=O)Nc1ccc(NC(=O)C(=O)NN=Cc2cccnc2)cc1	/	0.1	4.5	1.6	/	/	1.0
O=C(CNC(=O)c1cccc(F)c1)N/N=C/c1cc(Br)ccc1OC(=O)/C=C/c1ccco1	2.6	/	/	/	2670	-13.2	/
CN1CCN(c2ccc(NC(=O)COc3ccc(Cl)cc3Cl)cc2)CC1	7.1	-11.0	11.1	-2.3	5766	-24.8	19.1
CCN(CC(=O)Nc1cccc(OC)c1)C(=O)c1ccc(C)s1	-1.8	-1.9	2.3	0.9	10300	-9.6	-0.5
CCOC(=O)C(C)(C)N(Cc1ccc(C)cc1)S(=O)(=O)c1ccc(Cl)c([N+](=O)[O-])c1	11.4	13.0	10.4	1.9	2041	7.6	32.6
Cc1nn(C)c(C)c1/C=C/C(=O)c1ccccc1	0.3	0.0	2.8	4.7	24377*	-26.8	2.0
COc1ccc(NC(=O)COc2ccccc2)cc1NC(=O)c1ccco1	-4.0	4.5	5.6	3.9	3256	11.4	11.3
O=C(Nc1ccccc1NC(=O)c1ccccc1F)c1ccccc1F	4.5	/	/	/	3656	-30.6	/
CC(C)N(C(=O)COC(=O)c1cccc(S(=O)(=O)N2CC3(C)CC2CC(C)(C)C3)c1)C(C)C (configuration not stated)	/	4.1	0.5	2.3	6072	-29.4	7.5
O=C1CCCN1CC#CCN1CCCC1	9.4	7.9	2.2	2.5	5346	-31.3	2.9
Cc1ccc(N2CCN(C(=S)c3ccc(-c4cccc([N+](=O)[O-])c4)o3)CC2)cc1	3.1	/	/	/	2427	-19.7	/
CCC1(c2ccccc2)NC(=O)N(CC(=O)NC2CCCC2)C1=O (configuration not stated)	/	4.2	11.3	6.0	6520	-14.2	8.9
COc1ccccc1CC(=O)N(Cc1ccccc1)c1cccc(C)c1	9.7	2.4	-3.1	9.5	4153	-8.8	4.9
Cc1cccc2cc3c(N)c(C(=O)N4CCc5ccccc54)sc3nc12	-8.9	11.2	7.3	7.5	3244	-27.1	-6.2
N#CCCn1cc(/C=N/O)c(-c2ccc(F)cc2)n1	-1.5	/	/	/	3521	-7.2	/
O=C(CSc1nc2ccc(Nc3nc(N4CCOCC4)nc(N4CCOCC4)n3)cc2s1)Nc1ccccc1Cl	-1.9	-1.0	7.3	2.6	6585	-9.8	-13.5
CCOC(=O)N1CCN(C(=O)c2ccc(Cl)c(S(=O)(=O)N3CCOCC3)c2)CC1	1.9	5.7	5.1	4.7	3643	0.0	1.3
COc1ccc(S(=O)(=O)NCc2csc(-c3cccnc3)n2)cc1	-7.9	-6.5	11.8	-9.1	5881	-1.0	-2.0
O=C1COc2ccc(C(=O)C[n+]3cccc(O)c3)cc2N1	9.0	5.0	-7.4	1.1	3147	-7.8	0.0
COc1ccc(Nc2cc(C)nc(N3CCN(C(=O)c4ccc5c(c4)OCO5)CC3)n2)cc1	4.8	-3.6	-7.9	-0.2	5603	-2.1	2.2
O=C(COC(=O)c1cncc(Br)c1)NC1CCCCCC1	-4.1	-7.8	2.9	-0.8	4808	-12.4	3.1
CC(Cc1cccs1)NC(=S)Nc1ccc(Cl)c(Cl)c1 (configuration not stated)	-0.3	-1.6	5.2	1.6	2117	-33.7	-31.1
COc1ccc2ccc(OC)c(C=Nn3cnnc3)c2c1	/	16.2	-6.0	-2.5	/	/	10.7

Compound activity as filed in PubChem BioAssay.
